# Screening results as filed in PubChem.
# Rango-impB inh – prevents formation of the Rango-importin beta complex; 340,000 compounds, 0.031% hits; Rango CFP/YFP FRET sensor + importin beta, 45 min; Potency, µM (highest dose often 92.2 µM), for inactives: at the top dose inhibition of complex formation; active = rising FRET ratio curve, often small or poorly fitted; inconclusive = mostly compound fluorescence or quenching in the first reads; inactive = flat curves in all reads;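 also: potency is read from the fitted curve at half-maximal effect; 0% = DMSO wells and 100% = buffer wells lacking importin beta; nearly all actives have a fitted effect of over 15% in size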
# Target sequence (Q14974 whole entry, looked up): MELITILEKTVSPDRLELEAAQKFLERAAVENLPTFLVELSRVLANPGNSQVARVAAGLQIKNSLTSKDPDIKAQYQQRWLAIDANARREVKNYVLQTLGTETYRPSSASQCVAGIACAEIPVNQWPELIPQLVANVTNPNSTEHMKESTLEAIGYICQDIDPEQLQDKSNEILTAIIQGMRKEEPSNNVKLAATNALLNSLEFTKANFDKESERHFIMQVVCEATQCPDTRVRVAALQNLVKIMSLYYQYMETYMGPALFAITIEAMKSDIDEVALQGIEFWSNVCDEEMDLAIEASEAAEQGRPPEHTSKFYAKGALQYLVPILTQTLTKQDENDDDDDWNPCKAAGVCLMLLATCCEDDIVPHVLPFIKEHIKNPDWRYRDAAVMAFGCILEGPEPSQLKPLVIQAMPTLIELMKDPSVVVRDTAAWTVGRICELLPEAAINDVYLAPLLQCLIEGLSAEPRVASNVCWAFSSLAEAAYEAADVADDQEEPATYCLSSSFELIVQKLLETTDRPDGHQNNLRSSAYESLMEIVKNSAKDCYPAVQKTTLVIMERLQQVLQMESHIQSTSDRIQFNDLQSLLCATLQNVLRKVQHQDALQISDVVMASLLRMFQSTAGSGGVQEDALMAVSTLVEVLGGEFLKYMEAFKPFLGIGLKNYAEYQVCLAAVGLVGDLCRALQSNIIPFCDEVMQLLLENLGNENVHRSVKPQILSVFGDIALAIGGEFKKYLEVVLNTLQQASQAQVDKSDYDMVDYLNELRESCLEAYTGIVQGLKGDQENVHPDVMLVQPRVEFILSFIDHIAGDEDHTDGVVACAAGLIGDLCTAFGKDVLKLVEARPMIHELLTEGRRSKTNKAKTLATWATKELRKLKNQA
#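 FRET biosensor Rango (snurportin 1 IBB between N-terminal EYFP and C-terminal Cerulean), 50 nM in PBS/1 mM DTT/0.02% Tween-20/0.1% BSA, preincubated 5 min RT with compound; 0.125 microM importin beta added, 45 min RT, CFP/YFP FRET ratio read.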
# miR-21 reporter – miR-21 reporter, rising signal; HeLa miR-21 FLuc reporter, luciferase, 48 h; Potency, µM (titrated, usually from 38.3 µM), without a hit: top-dose reporter change, positive = more light; 340,000 tested, under 10 active; AID 2288; active = well fitted rising curve with a large enough effect; inconclusive = small, poorly fitted or top-dose-only effect; inactive = no such curve, though single readings can be large or run the other way;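 also: % of control where 0% means no effect; miR-21 action dims this reporter so a rising signal means less miR-21 action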
#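 HeLa miR-21-FLuc reporter line, endogenous miR-21; 2000 cells/well in DMEM/10% FBS; compound titration up to ~40uM final, 48 h, 37 degree Celsius; luciferase detection reagent, 15 min lysis, CCD luminescence.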
# GLA inh pH 4.5 – blocks human alpha-galactosidase A at pH 4.5; purified enzyme, 4-MU-alpha-Gal fluorescence, pH 4.5; P06280; 230,000 tested, under 10 active; activity change, negative = inhibition, % at 105 µM; AID 1467; inconclusive = small, poorly fitted or top-dose-only inhibition, or a rising curve; inactive = flat fitted curve, though single readings scatter; no compound was filed as active;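 also: 0% = full activity with enzyme and -100% = basal without enzyme; dose as in the result columns while the protocol names 77 µM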
# Rango release inh – prevents RanGTP from dissociating the Rango-importin beta complex | O95149+P62826 | Biochemical FRET Rango-importin beta, RanGTP-induced dissociation | Potency, µM (top dose mostly 46.1 µM), without a hit: top-dose activity change, negative = inhibition | 340,000 compounds, 0.071% hits; active means falling FRET ratio curve, often poorly fitted, with flat reads before Ran was added; inconclusive means other falling curves, or compound fluorescence or quenching; inactive means flat or rising ratio curve;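 also: potency is read from the fitted curve at half-maximal effect; % of control where 0% means no effect; nearly all actives have a fitted effect of over 45% in size; -100% = wells without RanGTP and RCC1; the record marks most hits as doubtful in a second field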
#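 Rango (0.1 uM)–importin beta (0.25 uM) complex; RanGTP-RCC1 trigger; 45 min RT; CFP/YFP FRET read.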
# * = called active by the depositor; ? = inconclusive; · = no result given. An excerpt (hit frequency here may not be typical).
SMILES,Rango-impB inh,miR-21 reporter,GLA inh pH 4.5,Rango release inh
COC(=O)C1CCCCN1C(=O)c1ccc2oc(Cc3ccccc3)nc2c1 (centres undefined),-2.0%,-38%,·,-6%
N#Cc1ccc(Cn2c(=O)c(C#N)c3n(c2=O)CCC3)cc1,0.4%,-3%,5,9%
COc1ccc(OCC(=O)N2CCN(C(=O)c3cccs3)CC2)cc1,-0.2%,-5%,2,12%
O=C(O)CCC(=O)N1CCc2cc(S(=O)(=O)N3CCCCC3)ccc21,-2.7%,0%,8,14%
Nc1ccc2ncccc2c1,-0.2%,-22%,-2,1%
CCOC(=O)N1CCN(c2nc(SC)nc3sc4c(c23)CC(C)(C)OC4)CC1,?,-3%,0,-4%
COc1ccc(OC)c(NC(=O)CCc2nnc3ccc(NCc4ccco4)nn23)c1,1.6%,-4%,·,0%
O=C(OCC(=O)N1CCCCCC1)c1cccnc1Cl,0.1%,·,·,4%
COC(=O)c1ccc(Cn2cnc3c(cnn3-c3ccc(F)cc3)c2=O)o1,-0.3%,1%,1,-1%
Cc1c(Cl)cccc1NC(=O)CSC(C)c1nc2ccccc2c(=O)[nH]1 (centres undefined),-1.3%,-4%,·,-1%
CCC(C)c1ccc(OCCn2ccnc2)cc1 (centres undefined),5.1%,-15%,3,2%
CN1C(=O)C2(C(C#N)=C(N)N(c3cc(Cl)cc(Cl)c3)C3=C2C(=O)CC(C)(C)C3)c2ccccc21 (centres undefined),1.2%,26%,3,3%
CCS(=O)(=O)NCCc1csc(-c2cccnc2)n1,-4.7%,-5%,3,-10%
O=C(CN1C(=O)c2ccccc2C1=O)N1CCN=C1c1ccccc1,6.2%,1%,3,24%
O=C(NC(=S)Nc1ccc(F)cc1)C1CCCCC1,2.3%,-36%,·,5%
O=C(c1cc(COc2cccc(C(F)(F)F)c2)on1)N1C[C@@H]2CCC[C@H]1C2,1.9%,-30%,·,9%
CCN(C(=O)Cn1c(=O)oc2ccccc21)c1c(N)n(Cc2ccccc2)c(=O)[nH]c1=O,11%,·,·,-6%
Cc1cc(=O)oc2cc(OCC(=O)OCC(=O)Nc3ccc(C(C)C)cc3)ccc12,-0.5%,-21%,-16,16%
CCOC(=O)C1CCN(C(=O)CN2C(=O)c3ccccc3S2(=O)=O)CC1,-0.2%,·,·,14%
CN(C(=O)c1ccc(NC(=O)Cc2ccc(NC(=O)C3CCN(C(=O)c4ccccc4)CC3)cc2)cc1)C1CCCC1,5.3%,·,·,-7%
CCOC(=O)C1=CN(Cc2ccco2)S(=O)(=O)NC1c1ccc(Br)cc1F (centres undefined),-0.3%,·,·,19%
O=C(c1cc2ccc([N+](=O)[O-])cc2oc1=O)N1CCOCC1,5.4%,-1%,2,0%
c1ccc2oc(-c3ccc(Nc4nc(N5CCCC5)nc(N5CCOCC5)n4)cc3)nc2c1,·,-2%,11,·
Cc1ccc(CSCC(=O)N(CCC(C)C)c2c(N)n(Cc3ccccc3)c(=O)[nH]c2=O)cc1,-11%,·,·,-15%
CC(C)CN1C(=O)NC(NC(=O)c2cccnc2)(C(F)(F)F)C1=O (centres undefined),-0.1%,1%,6,3%
Cc1ccc(-c2cc(C(=O)N/N=C/c3c[nH]c4ccccc34)n[nH]2)o1,5.4%,0%,-10,2%
Cc1c(NC(=O)c2cccc(NC(=O)COc3ccccc3)c2)c(=O)n(-c2ccccc2)n1C,5.4%,·,·,4%
CCOC(=O)CSc1nc2ccccc2c(=O)n1CC1CCCO1 (centres undefined),-1.8%,-7%,3,0%
Cc1ccc(C(C(=O)NCC2CCCO2)N(C(=O)c2snc(C(N)=O)c2N)c2ccccc2F)o1 (centres undefined),-4.2%,17%,·,-5%
CCOC(=O)C1CCN(Cc2ccc(O)c(OC)c2)CC1,1.8%,10%,-10,1%
O=C1Nc2ccccc2N(O)N1c1ccc(S(=O)(=O)N2CCOCC2)cc1,-4.1%,-7%,7,7%
C=CCn1c(SCc2c(C(=O)OC)sc(N)c2C(=O)OC)nnc1-c1ccc(Cl)cc1,0.1%,12%,-6,-7%
CCOC(=O)Cc1nnc(NCc2ccccc2)c2ccccc12,0.0%,1%,·,2%
CCCOc1ccc(C(=O)NNC(=O)CCNC(=O)c2ccccc2Cl)cc1OC,-2.9%,·,·,-1%
OCCN(Cc1ccccc1)Cc1ccc(Cl)cc1Cl,0.0%,2%,3,1%
O=C(NNC(=O)c1cc(-c2cccnc2)nc2ccccc12)Nc1ccc(Cl)cc1,-0.8%,8%,1,-16%
CCN(CC)S(=O)(=O)c1ccc(F)cc1,2.4%,-3%,-10,29%
CCC(=O)c1ccc(OCC(=O)O)c(OC)c1,3.4%,-1%,6,-16%
CCCCOc1c(Br)cc(/C=N/O)cc1OCC,4.2%,-6%,-7,-1%
CSc1ccccc1C(=O)Nc1nc2ccccc2[nH]1,0.7%,-51%,5,11%
CC(Oc1ccc(Cl)cc1)c1ccnn1S(=O)(=O)c1ccccc1 (centres undefined),1.8%,-1%,-5,-4%
O=C(CN1CCOCC1)N1CCOCC1,6.0%,·,·,13%
CCOC(=O)C1=C(CN2CCN(C(=O)c3ccco3)CC2)NC(=O)NC1c1ccc(OC(C)C)cc1 (centres undefined),0.1%,0%,·,82%
NS(=O)(=O)c1ccc(NC(=O)c2ccc(S(=O)(=O)N3CCOCC3)o2)cc1,-1.4%,1%,1,-17%
COc1ccc(N2C(=O)NC(NC(=O)C(C)(C)C)(C(F)(F)F)C2=O)cc1 (centres undefined),-1.0%,-3%,·,-5%
O=[N+]([O-])c1ncccc1Oc1nc(-c2cccnc2)nc2ccccc12,-0.5%,-1%,-3,18%
CCC(C)[C@H](NC(=O)NCCC1=CCCCC1)C(=O)OC (some centres undefined),-6.4%,0%,-1,1%
COC(=O)c1sccc1NC(=O)C1CCCCC1C(=O)O (centres undefined),1.9%,2%,3,-12%
CNC(=O)c1sc(-c2ccccc2)nc1C,-2.8%,-56%,9,-1%
COC(=O)CNC(=O)C12CC3CC(C1)CC(c1ccc(C)cc1)(C3)C2,-1.2%,-1%,6,-15%
COc1ccc2oc(=O)c(C(=O)N3CCN(C(=O)c4ccccc4)CC3)cc2c1,-2.4%,4%,·,-14%
CCc1cc2c(SCC(=O)N3CCCC3=O)ncnc2s1,0.1%,·,·,-11%
O=C(CN1C(=O)c2cccnc2Oc2ccc(Cl)cc21)N1CCCC1,-4.0%,-7%,·,0%
O=C(Cn1cnnn1)Nc1cccc([N+](=O)[O-])c1,9.0%,2%,-3,19%
COc1ccc(CCNC(=O)C2CCC(=O)N(CC3CCCCC3)C2)cc1 (centres undefined),3.1%,4%,·,9%
COc1ccc(OC)c(NC(=O)COC(=O)C2CCC2)c1,-3.2%,·,·,2%
COc1ccc(N2CCN(CCNC(=O)c3ccc4c(c3)[nH]c(=S)n3c5ccccc5nc43)CC2)cc1,-8.1%,0%,-1,17%
CC(C)c1c(C(=O)N/N=C/c2ccc(-c3ccccc3)cc2)nnn1-c1nonc1N,0.5%,0%,·,-8%
O=C(COC(=O)CCNS(=O)(=O)c1ccc(Cl)cc1)Nc1ccccc1OC(F)F,0.0%,·,·,0%
CCOC(=O)c1sc2nc(CC(=O)OC)nc(NCc3ccc(Cl)cc3)c2c1C,1.3%,1%,-7,3%

# Four compounds already listed, arranged by formula weight, smallest number first.
SMILES,Rango-impB inh,miR-21 reporter,GLA inh pH 4.5,Rango release inh
O=C(Cn1cnnn1)Nc1cccc([N+](=O)[O-])c1,9.0%,2%,-3,19%
COc1ccc(OC)c(NC(=O)COC(=O)C2CCC2)c1,-3.2%,·,·,2%
COC(=O)CNC(=O)C12CC3CC(C1)CC(c1ccc(C)cc1)(C3)C2,-1.2%,-1%,6,-15%
COc1ccc(CCNC(=O)C2CCC(=O)N(CC3CCCCC3)C2)cc1 (centres undefined),3.1%,4%,·,9%

# (listing goes on)
SMILES,Rango-impB inh,miR-21 reporter,GLA inh pH 4.5,Rango release inh
O=C(Cn1cnc([N+](=O)[O-])n1)NCCc1ccccc1,3.6%,-3%,6,-7%
CS(=O)(=O)c1ccc2nc(NC(=O)C3CC(=O)N(c4ccc(F)cc4)C3)sc2c1 (centres undefined),-0.4%,9%,·,-11%
Cn1ccs/c1=N\S(=O)(=O)c1ccc(F)cc1,-3.3%,0%,11,-2%
OCc1ccnc2oc3ccccc3c12,4.1%,·,·,25%
O=C(CNC(=O)c1cccs1)NCC(=O)OCc1ccccc1Cl,7.1%,-2%,1,-5%
Cc1ccc(-c2csc3n[nH]c(=S)n23)cc1,1.6%,-1%,12,-3%
CC(CN1CCOCC1)OC(=O)Cc1ccc(Cl)cc1 (centres undefined),?,2%,6,-21%
Cc1cc(C(=O)N/N=C/c2sc(N3CCOCC3)nc2-c2ccccc2)c(C)o1,?,1%,-20,?
C=CCSc1nc2c(c(=O)[nH]c(=O)n2C)n1Cc1ccccc1,-4.1%,-15%,·,6%
CC(C)CCn1nc(C(=O)OC(C)C(=O)NC(N)=O)c2ccccc2c1=O (centres undefined),-1.8%,-1%,14,5%
O=C(O)CCC(=O)Nc1cccc(-c2csc(-c3ccccc3)n2)c1,0.4%,?,-12,-1%
CC(=O)c1c[nH]c(C(=O)Nc2ccc(N3CCCCCC3)cc2)c1,-1.9%,·,·,-15%
CCN(CC(=O)NCc1ccc(F)cc1)CC(=O)Nc1cc(S(=O)(=O)N(C)C)ccc1C,-0.1%,·,·,-2%
C=C1c2ccccc2NC(=O)N1c1ccc(C)cc1,0.0%,-30%,7,4%
COc1cc(S(=O)(=O)Nc2ccccc2)ccc1NC=O,0.6%,0%,5,2%
CCOc1ccc(CCNc2nc3ccccc3n3cnnc23)cc1OCC,-3.3%,-8%,-29,1%
Cc1c(NC(=O)CN(c2ccc(F)cc2)S(=O)(=O)c2ccccc2)c(=O)n(-c2ccccc2)n1C,-3.5%,-2%,·,4%
COCCNC(=O)C(c1c[nH]c2ccccc12)N(C(=O)c1snc(C(N)=O)c1N)c1cccc(OC)c1 (centres undefined),-0.1%,-5%,0,25%
CCN(CC)S(=O)(=O)c1ccc(C(=O)NCC2CCCCC2)cc1,4.9%,-6%,·,19%
CN(C)C(=O)c1coc2nc3ccccc3nc12,?,-3%,?,?
CNc1oc(-c2cccs2)nc1C#N,1.1%,-23%,21,0%
CC(C)C(C)NC(=O)CSc1ccc(S(=O)(=O)N2CCOCC2)cn1 (centres undefined),4.2%,·,·,-8%
CCOC(=O)C1CCCN(C(=O)c2cc3c(-c4cccc(OC)c4)nn(C)c3s2)C1 (centres undefined),-0.1%,15%,-5,2%
O=C(N=C1SC2CS(=O)(=O)CC2N1c1ccc(F)c(Cl)c1)C1CC1 (centres undefined),?,-1%,·,?
CCc1ccc(C(=O)NC(C(=O)NCC2CCCO2)C(C)C)cc1 (centres undefined),-2.9%,1%,7,5%
Cc1ccc(C(=O)Nc2ncccc2C)cc1S(=O)(=O)N1CCOCC1,2.5%,·,·,0%
CC(=O)NC(=S)Nc1ccc(NC(=O)COc2ccc(Cl)cc2)cc1,0.7%,-2%,-6,-11%
Cc1cc(C)n(CCN(C)C(=O)CCc2nnc(-c3ccc4c(c3)OCO4)o2)n1,1.0%,-13%,0,-2%
CC(Oc1ccccc1F)C(=O)NNC(=O)CC(C)c1ccccc1 (centres undefined),-0.3%,·,·,1%
O=C(CCCNC(=O)/C(=C\c1ccc(F)cc1)NC(=O)c1ccccc1)OCc1ccccc1,-0.2%,1%,8,-11%
O=c1cc(CN2CCN(c3ccccc3F)CC2)c2cc(O)c(-c3ccccc3)cc2o1,1.6%,-13%,-14,5%
O=C(CCCCn1c(=O)c2ccccc2n(CC(=O)NC2CCCC2)c1=O)NCc1ccco1,-1.6%,-1%,1,16%

# Exported with values under each structure: four of the compounds above.
# Every second line gives: Rango-impB inh	miR-21 reporter	GLA inh pH 4.5	Rango release inh
- O=c1cc(CN2CCN(c3ccccc3F)CC2)c2cc(O)c(-c3ccccc3)cc2o1
→ 1.6%	-13%	-14	5%
- CC(=O)NC(=S)Nc1ccc(NC(=O)COc2ccc(Cl)cc2)cc1
→ 0.7%	-2%	-6	-11%
- O=C(CCCCn1c(=O)c2ccccc2n(CC(=O)NC2CCCC2)c1=O)NCc1ccco1
→ -1.6%	-1%	1	16%
- CCc1ccc(C(=O)NC(C(=O)NCC2CCCO2)C(C)C)cc1 (centres undefined)
→ -2.9%	1%	7	5%
